# Vif TR-FRET: inhibitors of Vif binding to APOBEC3G peptide, primary screen, biochemical, TR-FRET, GST-Vif 1-94, biotin-A3G peptide, dose response retest (AID 1117319); inhibition, %; hits with a dose series show IC50 in µM; TR-FRET GST-Vif / biotin-A3G peptide binding; higher % means a stronger effect; test concentration not given here; strong numbers were not always called active; actives 0.57% (n = 260,000); Virion infectivity factor (Human immunodeficiency virus type 1 group M subtype B (isolate …;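 active = above the screen mean plus three standard deviations and confirmed in dose response; inconclusive = results disagree or hit not tested in dose response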;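 also: Vif residues 1-94 fused to GST binding biotinylated APOBEC3G peptide 110-148; 0% = full assay without inhibitor and 100% = GST in place of GST-Vif; retest series ran down from 100 µM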
# Beta apoptosis: inhibitors of cytokine-induced beta cell apoptosis, primary screen, luminescence; AID 435005, 2010; actives 0.8% (n = 300,000); INS-1E cytokine-induced death, ATP luminescence, 48 h; percent of positive-control rescue, neutral wells zero; protection from apoptosis, % (concentration not given with the values);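 active = all replicates at 75% or more, or half of them and the mean; inconclusive = half reach 75% but not the mean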;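 also: 0% = cytokine-treated negative control wells and 100% = positive control rescue; higher means more ATP so stronger rescue from cytokine killing; wells of about 40 µL received 100 nL stock; the first replicate is given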
# rRNA inh HTS: reduced GFP signal of wild-type E. coli, primary screen, bacterial rRNA inhibitor project, GFP/RFP fluorescence, OD600, single point; E. coli WT GFP vs humanized-ribosome RFP mutants, 24 h; stronger effect = lower value; DMSO median 0, no signal -100; GFP signal change (wild-type ribosome), % (test concentration not listed); actives 1.6% (n = 350,000);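 active = significant combined selectivity score with lowered wild-type GFP, culture density cut under 30%, mutant RFP and density less affected; inactive = any of these conditions unmet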; also: one replicate is shown; some compounds called inactive have numbers as strong as hits
# RanGTP-Imp inh: inhibitors of RanGTP-importin-beta interaction, primary screen, biochemical, FRET, CFP-Ran, YFP-importin-beta, homogeneous | Ran GTPase (GTP-bound) - importin-beta complex | cell-free CFP-Ran/YFP-importin-beta FRET ratio | actives 1.1% (n = 300,000) | inhibition, % (test concentration not listed);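 active = most replicates above 15%; inconclusive = exactly half above 15%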;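 also: 0% = DMSO wells and 100% = Ran loaded with GDP instead of GTP; wells of about 40 µL received 100 nL stock; the first replicate is given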
# A1 inh: caspase 3/7 activation in MEF A1-2A-BIM cells, primary screen, A1 inhibitor project, cell-based, luminescence, HTS. actives 0.066% (n = 330,000). caspase activation, % (test concentration not listed). Caspase-Glo 3/7 luminescence, 3 h; percent of clofoctol response, vehicle zero;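 active = over half of replicate activation scores above 10%, or exactly half above 10 with the replicate mean above 10; inconclusive = replicate mean below 10 yet half the replicates above 10; inactive = over half of replicates below 10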;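 also: wells of about 30 µL received 50 nL stock; many hits fall short of the cut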
# AF4-AF9 inh: inhibitors of AF4 peptide binding to AF9, primary screen, biochemical, AlphaScreen, biotin-AF4 peptide, FLAG-AF9, single point; Protein AF-9 (Homo sapiens), P42568; inhibition, % at 10 µM; actives 0.47% (n = 350,000); AID 651704, 2012;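 active = every replicate reaching a set inhibition limit, whatever the replicate mean, cut at about 25% in these data; inconclusive = mean inhibition reaches that limit but some replicates miss it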;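 also: 0% = plate neutral control median and 100% = total signal loss; the record names both 10 and 1 µM as test concentration; the first replicate is given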
# Target sequence (P42568 whole entry, looked up): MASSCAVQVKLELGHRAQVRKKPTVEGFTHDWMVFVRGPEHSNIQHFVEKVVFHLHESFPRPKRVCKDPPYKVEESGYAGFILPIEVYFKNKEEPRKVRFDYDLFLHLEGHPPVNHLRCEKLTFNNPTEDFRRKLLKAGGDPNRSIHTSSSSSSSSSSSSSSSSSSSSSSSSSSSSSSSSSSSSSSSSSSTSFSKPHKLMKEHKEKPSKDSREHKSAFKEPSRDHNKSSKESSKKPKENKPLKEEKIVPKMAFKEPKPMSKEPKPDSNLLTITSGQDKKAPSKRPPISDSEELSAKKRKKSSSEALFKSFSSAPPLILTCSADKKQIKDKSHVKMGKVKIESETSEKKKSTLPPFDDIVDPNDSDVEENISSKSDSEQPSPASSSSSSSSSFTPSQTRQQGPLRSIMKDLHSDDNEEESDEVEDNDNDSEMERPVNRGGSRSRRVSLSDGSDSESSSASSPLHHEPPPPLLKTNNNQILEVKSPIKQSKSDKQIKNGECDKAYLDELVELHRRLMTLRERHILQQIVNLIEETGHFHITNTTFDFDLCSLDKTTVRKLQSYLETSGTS
# Calb FLC: C. albicans growth inhibition with fluconazole, primary screen, CaCi-2 strain, Alamar Blue fluorescence. actives 0.57% (n = 300,000). AID 1979, 2009. growth inhibition, % (concentration not given with the values). C. albicans CaCi-2 (fluconazole-resistant clinical isolate) + fluconazole, 48 h;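 active = most replicates above 75%; inconclusive = exactly half above 75%; inactive = most below 75%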;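 also: all wells also contain fluconazole at 8 µg/ml as a sub-toxic cotreatment; 0% = median of DMSO wells and 100% = median of geldanamycin control wells; wells of about 8 µL received 7.5 nL stock; the first replicate is given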
# T cruzi repl: inhibitors of intracellular T. cruzi growth, primary screen, luminescence, NIH3T3 host cells; T. cruzi beta-gal in NIH3T3, 90 h; inhibition, % (no concentration beside the values); actives 1.4% (n = 300,000); AID 1885, 2009;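 active = mean inhibition across valid replicates above about 55%, limit read from the data; inconclusive = mean below that limit but half or more replicates reach it; inactive = mean below it, under half of replicates reach it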;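 also: signal also drops with host cell toxicity which is not excluded here; 0% = plate median of DMSO wells and 100% = zero luminescence signal; higher percent means less beta-gal luminescence so fewer parasites; stock transfer was 50 nL into about 50 µL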
# rRNA inh HTS OD600: also measured in rRNA inh HTS; calls as there; OD600 change, %; measured here: OD600 growth;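 optical density of the mix in the first replicate; 0 = DMSO median and -100 = no signal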
# rRNA inh HTS RFP: also measured in rRNA inh HTS; calls as there; RFP signal change, %; measured here: RFP humanized mutant strains;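 first replicate; 0 = DMSO median and -100 = no signal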
# * hit, by the source's call; ? = inconclusive; · = no result given; & = joins results of further samples. Some of the compounds tested; rates above refer to the full screens.
SMILES	Vif TR-FRET	Beta apoptosis	rRNA inh HTS RFP	AF4-AF9 inh	RanGTP-Imp inh	Calb FLC	A1 inh	rRNA inh HTS	rRNA inh HTS OD600	T cruzi repl
CC(=O)c1cccc(NC(=O)c2ccc(OCc3c(C)noc3C)cc2)c1	·	2	-3.1	-0.4	·	·	-0.1	0	10	·
O=C(CN1CCN(Cc2ccccc2)CC1)N1CCN(c2ccccc2)CC1	0%	-3	0.3	·	-3.4	2	1.0	5	-2	45
CCOC(=O)Cn1cc([N+](=O)[O-])c(OC)n1	?	-1	·	·	-3.1	-12	0.4	·	·	-7
CCC(c1nnnn1Cc1cccs1)N1CCN(C(=O)c2ccco2)CC1 (stereo not given)	-4%	-3	-2.3	-1.1	-2.0	-5	1.1	16	17	9
Cc1cc(Cn2ccnc2)c(C)c([N+](=O)[O-])c1Cn1ccnc1	0%	-1	-2.1	0.3	2.2	-1	-0.9	13	-2	60*
CCOC(=O)N1CCN(c2c(NCCCN(CC)Cc3ccccc3)c(=O)c2=O)CC1	1%	-17	·	·	2.7	-6	1.1	·	·	-19
CC(=O)Nc1ccc(S(=O)(=O)NC(CC(=O)NCCc2ccccc2)C(C)C)cc1 (stereo not given)	5%	·	·	·	-0.4	12	0.9	·	·	-8
CCc1noc(C)c1C(=O)N1CCCC1	7%	1	-3.5	3.4	?	1	0.5	7	5	-14
COc1ccc(-c2ccc(=O)n(Cc3c(F)cccc3Cl)n2)cc1	-9%	6	-1.0	-0.2	-0.2	-8	0.0	1	6	17
CCc1sc(C(=O)Nc2ccc(OC)c(S(=O)(=O)N3CCOCC3)c2)cc1C	·	9	1.5	-3.1	·	·	0.8	-5	2	·
CC(=O)Oc1ccc2nc(CN3C(=O)c4ccc([N+](=O)[O-])cc4C3=O)oc(=O)c2c1	·	-6	0.8	-3.6	1.8	-10	0.4	12	13	10
CCCCCc1nnc(NC(=O)Cc2cccs2)s1	?	-9	·	·	1.5	1	-0.2	·	·	-9
Cc1csc(Sc2ccc(C(=O)OCC(=O)Nc3ccc(F)cc3[N+](=O)[O-])cc2[N+](=O)[O-])n1	·	-3	-3.0	1.1	5.6	-1	0.3	-2	20	-11
CCCN1Cc2cccc(C(=O)NCc3ccccc3)c2C1=O	3%	-2	·	·	-0.6	-4	-0.3	·	·	1
CCO/C=C1/C(=O)N(Cc2ccccc2)C(=O)c2ccccc21	-2%	7	-1.9	5.4	-0.1	20	0.2	17	11	5
CCOC(=O)c1c(C)[nH]c(C)c1S(=O)(=O)NCCc1ccco1	·	-10	2.0	-4.0	0.9	0	1.8	8	3	0
CN(C)CCNC(C(=O)Nc1cccc(C(F)(F)F)c1)c1ccccc1 (stereo not given)	22%	2	-0.2	-0.8	-0.5	-3	1.0	14	8	23
COc1c2occc2c(OC)c2c(=O)cc(C)oc12	25%	2	-3.2	-0.6	4.9	·	-0.2	-5	-7	-8
Cc1cccc(C)c1OCCOCCN1CCN(C)CC1	-4%&72%	·	-2.4	-1.0	0.5	-4	0.5	5	13	36
COC(=O)c1cc(CN2C(=O)c3ccccc3C2=O)c(O)c([N+](=O)[O-])c1	5%	-2	-2.0	0.0	2.9	-11	-0.6	5	7	0
Cc1ccc(CNC(=O)COC(=O)c2cnc(C)cn2)cc1	1%	-6	11	-0.6	0.1	5	-0.8	36	33	-4
COc1cc(C)c(Cl)c(C)c1S(=O)(=O)NCc1cccnc1	31%	2	·	·	5.8	16	-0.3	·	·	-12
O=C(CS(=O)(=O)c1ccc2ccccc2c1)N1CCCCCC1	-7%	-4	-4.1	-13	0.2	-4	0.6	-15	-18	7
COc1cccc(NC(=O)Nc2nnc(CC(=O)Nc3ccccc3)s2)c1	-10%	-12	15	1.6	2.1	-2	0.3	-23	2	-11
CC(C)=CCc1cc([C@@H]2CC(=O)c3ccc(O)c(CC=C(C)C)c3O2)ccc1O	·	-4	8.0	4.1	3.3	1	-0.2	-36	-42	2
COCCN(CCOC)S(=O)(=O)c1ccc(OC)cc1	?	-7	·	·	-3.3	5	-0.8	·	·	-19
N/C(=N\OC(=O)COc1ccc(Br)cc1Cl)c1ccncc1	2%	-3	-5.5	-4.4	·	·	-2.3	-8	-3	·
N#Cc1ccccc1/C=C/C(=O)N1CCOCC1	·	-4	-5.1	-0.3	-1.9	5	-0.4	1	-7	-3
COc1ccc(-n2c(Cc3cccn3C)nnc2SCC(=O)Nc2ccc3c(c2)OCO3)cc1	23%	2	-0.1	1.4	1.1	6	-0.6	-2	-7	2
COc1ccc(CN(CCNC(=O)CCCCC(=O)NCCN(Cc2ccc(OC)cc2)C(C)C)C(C)C)cc1	·	·	-0.5	1.8	-0.2	2	0.2	6	8	39
Cc1ccc(-c2c(C(=O)N/N=C/c3ccc(C)o3)nnn2-c2nonc2N)cc1	·	-11	7.2	-0.3	4.3	-2	-0.2	-1	7	8
CN(c1ccccc1)S(=O)(=O)c1cccc(NS(=O)(=O)c2cccc(C(=O)O)c2)c1	-3%	-4	2.7	-1.4	·	·	0.0	-2	1	·
CC(OC(=O)c1ccco1)C(=O)NCc1cccs1 (stereo not given)	21%	-8	·	·	-1.5	-3	0.4	·	·	-15
COc1ccc(NC(=O)CC(C)=O)c(OC)c1	-6%	·	0.1	-0.6	1.2	-1	·	14	15	-10
NS(=O)(=O)c1ccc(NC(=O)COC(=O)C23CC4CC(CC(C4)C2)C3)cc1	33%	-3	-14	2.1	2.4	12	0.2	-18	-6	-10
O=C(c1cc(-c2cccnc2)nc2ccc(Cl)cc12)N1CCN(S(=O)(=O)c2cccs2)CC1	·	-1	-1.9	4.0	6.0	1	0.3	4	3	11
O=C(CCn1c(=S)oc2ccccc21)NC1CCCCCC1	?	-9	2.1	7.1	0.8	3	0.3	3	-3	7
N#Cc1c(N)c(C#N)c(-c2ccc(O)cc2)c2c1CCCC2	2%	0	·	·	-5.3	-3	-0.5	·	·	6
CC(C)CC(=O)Nc1c(C(=O)N2CCN(Cc3ccccc3)CC2)oc2ccccc12	5%	-3	-0.1	-1.0	0.7	-5	-0.2	-8	-6	17
Cc1ccc(NC(=S)NNC(=O)c2cn(C)nc2C)cc1	-2%	5	·	·	0.6	5	0.1	·	·	15
COc1cccc(NC(=S)N(CCCN2CCCC2)Cc2ccco2)c1	6%	-17	1.5	5.1	9.1	-10	0.2	0	4	-10
O=c1c2c3c(sc2n2cnnc2n1-c1ccccc1)N(Cc1ccccc1)CCC3	8%	-8	·	·	6.1	1	-0.1	·	·	-1
CCOc1ccc(NC(=O)CCC(=O)NNC(=O)Nc2ccc(Cl)cc2)cc1	-1%	·	2.5	0.2	-2.2	-5	0.4	-6	-2	-1
COC(=O)c1ccccc1NC(=O)Cn1nc(C(F)(F)F)c2c1CCC2	-2%	5	·	·	-1.6	8	0.1	·	·	0
CCN(CC)CCCN=Cc1c(O)n(-c2cccc(C)c2)c(=O)c2ccccc12	-13%	-6	1.2	5.4	8.6	-1	0.1	4	-2	-2
NCCNC[C@@H]1COC2(CCCCCCCCCCC2)O1	-4%	-15	3.0	16	-2.0	-10	0.6	6	4	10
Cc1noc(C)c1CSc1nnc(-c2c[nH]c3ccccc23)n1-c1ccc(Cl)cc1	10%	7	·	·	1.7	11	-0.3	·	·	9
CCOc1ccc2nc(Cl)sc2c1	0%	-6	2.6	-0.1	-2.8	-2	0.2	19	10	-8
COc1ccc(OC)c2nc3c(cc12)CCC3	·	-3	1.9	0.3	6.5	5	-0.1	8	12	5
COC(=O)c1sccc1NC(=O)Cc1ccc(OC)c(OC)c1	-9%	5	·	·	?	-2	-0.1	·	·	-11
CC(C)Cn1c(N)c(C(=O)CSc2nnnn2C)c(=O)n(C)c1=O	6%	-5	·	·	3.7	1	-0.4	·	·	1
Nc1cc(=O)[nH]c(SCC(=O)Nc2cccc(S(=O)(=O)N3CCCCC3)c2)n1	1%	-4	-10	-3.5	·	·	0.1	0	3	·
COc1ccc(-c2c(-c3cc(OC)cc(OC)c3)n(C)c3ccc(-c4ccc(SC)cc4)cc23)cc1	·	-3	-5.3	-2.1	·	·	0.4	8	4	·
CCOc1ccc(/C(O)=C2/C(=O)C(=O)N(CCOCCO)C2c2cccnc2)cc1 (stereo not given)	0%	-11	·	·	4.0	7	-0.2	·	·	-7
COc1cccc(NC(=O)CNS(=O)(=O)c2ccc(Cl)cc2)c1	-8%	-3	·	·	-1.0	-9	2.5	·	·	-9
O=C(CCNS(=O)(=O)c1ccccc1)Nc1ccccc1	·	-2	-3.3	-1.6	-0.4	25	1.0	-5	-13	-14
COc1cccc(CNC(=O)Cn2ncc3c(=O)oc4ccccc4c32)c1	-6%	1	-4.2	1.9	1.3	2	0.4	4	9	-3
CCn1cc(S(=O)(=O)NCCc2ccc(OC)c(OC)c2)cn1	·	-6	-1.2	-1.2	·	·	-0.3	6	6	-1
CCNc1nc(Oc2ccc(OC)cc2)cc(C(F)(F)F)n1	-8%	2	24	-2.3	1.8	0	1.5	-26	-35	-1

# Exported as labelled records: 3 of the compounds above
SMILES: O=C(c1cc(-c2cccnc2)nc2ccc(Cl)cc12)N1CCN(S(=O)(=O)c2cccs2)CC1
  Vif TR-FRET: · | Beta apoptosis: -1 | rRNA inh HTS RFP: -1.9 | AF4-AF9 inh: 4.0 | RanGTP-Imp inh: 6.0 | Calb FLC: 1 | A1 inh: 0.3 | rRNA inh HTS: 4 | rRNA inh HTS OD600: 3 | T cruzi repl: 11

SMILES: COc1cccc(NC(=S)N(CCCN2CCCC2)Cc2ccco2)c1
  Vif TR-FRET: 6% | Beta apoptosis: -17 | rRNA inh HTS RFP: 1.5 | AF4-AF9 inh: 5.1 | RanGTP-Imp inh: 9.1 | Calb FLC: -10 | A1 inh: 0.2 | rRNA inh HTS: 0 | rRNA inh HTS OD600: 4 | T cruzi repl: -10

SMILES: CN(C)CCNC(C(=O)Nc1cccc(C(F)(F)F)c1)c1ccccc1 (stereo not given)
  Vif TR-FRET: 22% | Beta apoptosis: 2 | rRNA inh HTS RFP: -0.2 | AF4-AF9 inh: -0.8 | RanGTP-Imp inh: -0.5 | Calb FLC: -3 | A1 inh: 1.0 | rRNA inh HTS: 14 | rRNA inh HTS OD600: 8 | T cruzi repl: 23
